HIV Env fusion: blocks HIV Env-driven cell-cell fusion; HeLa-JRFL Env/CEM21 cell fusion, luciferase; AID 651610; hit rate 1.1% among 360,000; inhibition, % at 12.3 µM;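 active means mean replicate inhibition score of at least 50 and every replicate individually at or above 50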;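 further: 0% = plate neutral controls and 100% = maraviroc near 300 nM; one replicate is shown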
CSC inhib: cancer stem cell inhibition | cancer stem cell-like cells viability, luminescence | inhibition, % at 7.5 µM | hit rate 1.1% among 300,000 | AID 2717;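 active means mean at 75% or more and at least half the replicates too; tested in HMLE shEcad cells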;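 further: 0% = median of negative and 100% = median of positive control wells; the first replicate is given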
eIF4H FP inh: inhibitors of RNA binding by human eIF4H. Q15056. eIF4H fluorescence polarization binding assay. inhibition, % at 35 µM. hit rate 0.94% among 290,000. AID 2012;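 active means 50% or more with normal probe brightness, or confirmed in later tests; about a fifth of its hits are not listed in these tables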;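 further: calls also rest on retests at 20 µM and on dose response follow-up; 0% = protein and probe with vehicle and 100% = probe without protein; strong numbers were not always called active; many hits fall short of the cut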
PABP polyA inh: blocks human PABP binding to poly(A) RNA. AID 2014. inhibition, % at 35 µM. P11940. fluorescence polarization. hit rate 1% among 290,000;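 active means 50% or more with normal probe brightness, or confirmed in later tests; about a fifth of its hits are not listed in these tables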;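 further: calls also rest on retests at 20 µM and on dose response follow-up; controls were probe without protein and protein plus probe with vehicle; some compounds called inactive have numbers as strong as hits; many hits fall short of the cut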
Yeast UUG start: yeast start codon fidelity modulation; hit rate 0.13% among 350,000; S. cerevisiae UUG-firefly luciferase reporter, luminescence/redox ratio; activity score, % at 18.7 µM;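 active means replicate mean at a twofold rise or more, about +100% in these data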;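 further: firefly luciferase made from a UUG start codon reports start codon fidelity; reporter light over untreated wells divided by growth signal over untreated wells; some hits fall short of that in this replicate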
Rce1 inh: blocks yeast Ras-converting enzyme; Q03530; calls only; hit rate 0.27% among 290,000; yeast membranes, quenched prenylated peptide cleavage fluorescence; AID 2563;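 active means fall in fluorescence gain of 50% or more versus controls, with final raw signal at or below 3038400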;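 further: plate controls were neutral control wells for no effect and wells lacking membranes for full effect; tested at 10 µM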
Target sequence (Q03530 whole entry, looked up): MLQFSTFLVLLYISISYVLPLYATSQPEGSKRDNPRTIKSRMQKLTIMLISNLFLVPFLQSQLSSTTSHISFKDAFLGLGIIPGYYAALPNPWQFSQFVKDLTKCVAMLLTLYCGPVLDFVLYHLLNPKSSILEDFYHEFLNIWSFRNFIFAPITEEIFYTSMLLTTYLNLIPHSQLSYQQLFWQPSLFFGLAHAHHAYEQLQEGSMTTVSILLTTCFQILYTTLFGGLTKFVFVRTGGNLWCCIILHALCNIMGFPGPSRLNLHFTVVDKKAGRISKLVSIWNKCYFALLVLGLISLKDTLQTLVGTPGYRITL
MT1-MMP act inh: inhibitors of human MT1-MMP activation. P50281. HT1080 RFP-PRO-GFP cells, GFP/RFP ratio fluorescence, overnight; percent of plate control window, DMSO zero. GFP/RFP ratio change, % at 20 µM. hit rate 0.061% among 360,000. AID 651647;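 active means GFP/RFP ratio change of at least 30% with cell ATP level not reduced by more than half and red fluorescence within 50% of control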; further: strong numbers were not always called active
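Assay system: HT1080 cells carrying an RFP-PRO-GFP reporter | Dosing: Single dose of 20 µM compound, 1% DMSO final | Incubation: Cells overnight before dosing, compound overnight, 37 °C, 5% CO2 | Evaluation: GFP/RFP fluorescence ratio | Control set: DMSO and RFP-L50D-GFP cell wells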
MT1-MMP act inh RFP: recorded beside MT1-MMP act inh, whose call it bears; RFP signal change, %; measured here: RFP expression control read;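 0 = vehicle wells; hits needed this value within 50% of zero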
The depositor's hits bear a star; i = inactive; . = no result given. An excerpt. The share of hits here may be higher or lower than overall.

Preview (7 entries):
SMILES | HIV Env fusion | CSC inhib | eIF4H FP inh | PABP polyA inh | Yeast UUG start | Rce1 inh | MT1-MMP act inh | MT1-MMP act inh RFP
O=C(Nc1cccc(F)c1)NC1(C(=O)N2CCN3CCCC3C2)CCCCC1 (stereo not drawn) | . | . | -6 | 6 | -19 | i | 0 | 3
Cc1cnnn1-c1cccc([N+](=O)[O-])c1 | 14 | 0 | 0 | 1 | 3 | i | 2 | 1
CCOc1ccc(-n2nc3c(=O)[nH]nc(C)c3c2C)cc1 | . | 7 | -18 | -2 | . | i | 1 | 3
CC1CC(C)CN(CCOCCSc2ccc(Cl)cc2)C1 (stereo not drawn) | -6 | 69 | 19 | 8 | . | i | -2 | 5
Cc1ccc(C2CC(C(F)(F)F)n3nc(C(=O)NCCN4CCOCC4)cc3N2)cc1 (stereo not drawn) | -13 | -16 | -7 | 3 | . | i | 4 | 5
C/C(=N\NC(=O)c1cccc(C)c1)c1cccc(NC(=O)c2ccco2)c1 | -116 | 8 | -4 | -4 | 1 | i | -2 | 5
COc1ccc2[nH]cc(CCNC(=O)/C=C/[C@H]3O[C@@H](n4cnc5c(NC(=O)c6ccccc6)ncnc54)[C@H](O)[C@@H]3O)c2c1 | 13 | . | . | . | -18 | . | 0 | 3

Main list, previewed entries included:
SMILES | HIV Env fusion | CSC inhib | eIF4H FP inh | PABP polyA inh | Yeast UUG start | Rce1 inh | MT1-MMP act inh | MT1-MMP act inh RFP
O=C(Nc1cccc(F)c1)NC1(C(=O)N2CCN3CCCC3C2)CCCCC1 (stereo not drawn) | . | . | -6 | 6 | -19 | i | 0 | 3
Cc1cnnn1-c1cccc([N+](=O)[O-])c1 | 14 | 0 | 0 | 1 | 3 | i | 2 | 1
CCOc1ccc(-n2nc3c(=O)[nH]nc(C)c3c2C)cc1 | . | 7 | -18 | -2 | . | i | 1 | 3
CC1CC(C)CN(CCOCCSc2ccc(Cl)cc2)C1 (stereo not drawn) | -6 | 69 | 19 | 8 | . | i | -2 | 5
Cc1ccc(C2CC(C(F)(F)F)n3nc(C(=O)NCCN4CCOCC4)cc3N2)cc1 (stereo not drawn) | -13 | -16 | -7 | 3 | . | i | 4 | 5
C/C(=N\NC(=O)c1cccc(C)c1)c1cccc(NC(=O)c2ccco2)c1 | -116 | 8 | -4 | -4 | 1 | i | -2 | 5
COc1ccc2[nH]cc(CCNC(=O)/C=C/[C@H]3O[C@@H](n4cnc5c(NC(=O)c6ccccc6)ncnc54)[C@H](O)[C@@H]3O)c2c1 | 13 | . | . | . | -18 | . | 0 | 3
O=C(c1ccc(F)cc1)N1C2CCC1CC(O)(c1ccc(F)cc1)C2 (stereo not drawn) | -153 | 7 | 3 | 8 | -20 | i | -3 | -2
COc1ccccc1C(=O)NCCC(=O)NNC(=O)c1ccccc1O | 18 | 25 | . | . | -7 | i | 2 | 3
CCOCCCNC(=O)CCCOc1ccccc1 | 22 | -5 | -8 | -10 | -16 | i | 1 | 6
Cc1ccc(NC(=O)c2ccc(OC(=O)COc3ccc(Cl)cc3C)cc2)cc1 | -109 | 4 | -11 | 0 | . | i | 5 | 4
CCn1c(C)nc2cc(C(=O)NNC(=S)Nc3ccc(C)cc3)ccc21 | -10 | 3 | 0 | -2 | -32 | i | 5 | 3
CCOc1ccc(-c2nc(CSCC(=O)NCc3ccco3)c(C)o2)cc1 | . | -16 | -6 | -6 | -14 | i | -6 | -4
CCC(C)NC(=O)CSc1nc2ccccc2c(=O)n1Cc1ccc(OC)cc1 (stereo not drawn) | -125 | -6 | -7 | -1 | -8 | i | -3 | -1
O=C(NC1CCCCC1)c1cccc(Cn2cc(Cl)cn2)c1 | -25 | -7 | -6 | 3 | -13 | i | -10 | -14
CC(=O)Nc1ccc(Oc2ccc3c(c2)C(=O)NC3=O)cc1 | -4 | -1 | -5 | -2 | -1 | i | 2 | -1
CCOC(=O)Cc1csc(NC(=O)C2C3C=CC(C3)C2C(=O)O)n1 (stereo not drawn) | . | 2 | -3 | 2 | -23 | i | 0 | 1
COc1ccc(N/C=C/C(=O)c2ccc(Oc3ncccn3)cc2)cc1 | . | 9 | 0 | 5 | -22 | i | 4 | 1
O=S(=O)(c1ccsc1)N1CC=C(c2ccccc2)CC1 | -6 | -24 | 7 | 12 | -18 | i | 2 | 3
COC(=O)CC(c1ccccc1F)N1Cc2ccccc2C1=O (stereo not drawn) | -1 | -1 | -1 | 1 | -9 | i | -2 | -3
CCN(C(=O)CSc1n[nH]c(-c2cccs2)n1)C1CCS(=O)(=O)C1 (stereo not drawn) | 0 | -2 | 4 | 1 | -15 | i | 9 | 8
CCc1c(C)sc2nc3c(C(=O)N4CCOCC4)cc(C(=O)c4ccccc4O)cn3c(=O)c12 | 8 | -1 | 23 | 3 | 4 | i | -16 | -7
COc1ccc(CCNC(=O)CNCC(c2ccccc2)N(C)C)cc1OC (stereo not drawn) | 8 | -6 | 2 | 19 | -8 | i | -1 | 2
CCN1C(=O)/C(=C2\SC(=S)N(NC(=O)c3ccccc3O)C2=O)c2ccccc21 | 14 | -10 | -15 | 21 | . | i | -8 | -1
CC1(C)Oc2ccc(C(=O)NC3CCCC3)cc2N(CC(=O)N2CCOCC2)C1=O | -18 | -1 | -2 | 8 | -5 | i | 3 | -1

Overlap with the part before: 6 compounds, followed by the next part.
SMILES | HIV Env fusion | CSC inhib | eIF4H FP inh | PABP polyA inh | Yeast UUG start | Rce1 inh | MT1-MMP act inh | MT1-MMP act inh RFP
COC(=O)CC(c1ccccc1F)N1Cc2ccccc2C1=O (stereo not drawn) | -1 | -1 | -1 | 1 | -9 | i | -2 | -3
CCN(C(=O)CSc1n[nH]c(-c2cccs2)n1)C1CCS(=O)(=O)C1 (stereo not drawn) | 0 | -2 | 4 | 1 | -15 | i | 9 | 8
CCc1c(C)sc2nc3c(C(=O)N4CCOCC4)cc(C(=O)c4ccccc4O)cn3c(=O)c12 | 8 | -1 | 23 | 3 | 4 | i | -16 | -7
COc1ccc(CCNC(=O)CNCC(c2ccccc2)N(C)C)cc1OC (stereo not drawn) | 8 | -6 | 2 | 19 | -8 | i | -1 | 2
CCN1C(=O)/C(=C2\SC(=S)N(NC(=O)c3ccccc3O)C2=O)c2ccccc21 | 14 | -10 | -15 | 21 | . | i | -8 | -1
CC1(C)Oc2ccc(C(=O)NC3CCCC3)cc2N(CC(=O)N2CCOCC2)C1=O | -18 | -1 | -2 | 8 | -5 | i | 3 | -1
O=[N+]([O-])c1cccc(N(CC(O)CN2CCCCC2)S(=O)(=O)c2ccccc2)c1 (stereo not drawn) | -11 | 0 | -2 | 3 | -17 | i | -1 | 1
Cc1nn(-c2ccc(F)cc2)c(Cl)c1C(=O)NCC1CCCO1 (stereo not drawn) | -10 | -13 | . | . | -16 | . | 0 | 1
CC(=O)Oc1ccc(-c2cccc(C(=O)NCCCO)c2)cc1 | 7 | 3 | -6 | 2 | -3 | i | 0 | 5
CCOc1ccccc1CN1CCC(n2nccc2NC(=O)C2CCCC2)CC1 | -27 | 3 | 2 | -3 | -6 | i | 1 | 3
CN(C)c1ccc(CC(=O)N2CCCCC2c2cc(C(=O)Nc3cccc4c3CCCC4)no2)cc1 (stereo not drawn) | 5 | . | . | . | -10 | . | -17 | -15
Cc1ccc(CSc2ncccc2C(=O)O)cc1 | 26 | -4 | 3 | 6 | -7 | i | 8 | 5
O=C(CSCCc1ccccn1)Nc1cccnc1 | . | 20 | 1 | 7 | -22 | i | -1 | -1
COC(=O)CCc1sc(Nc2ccc(Br)cc2)nc1-c1ccc(OC)cc1 | -9 | 55 | -1 | -3 | -14 | i | -1 | -10
Cc1ccc(C(=O)N/C(=C\c2ccco2)C(=O)N2CC(C)OC(C)C2)cc1C (stereo not drawn) | . | -10 | 7 | 3 | -5 | i | -7 | 1
O=C(OCC(=O)N1CCN(C(=O)c2ccco2)CC1)c1ccc(S(=O)(=O)N2CCCCC2)cc1 | . | -6 | 4 | -6 | 6 | i | 6 | 1
CCOc1cc(C)c(Cl)cc1S(=O)(=O)NCc1ccco1 | . | . | 8 | 10 | 310* | i | 5 | -1
COCc1cc(C)nc(OCC(=O)N/N=C/c2ccco2)c1C#N | -2 | . | 10 | 5 | . | i | . | .
CCOC(=O)C1=C(SCC(=O)Nc2ccccc2)NC(=O)C(C#N)C12CCCCC2 (stereo not drawn) | . | . | 6 | 5 | -8 | . | -2 | -2
Cc1ccc(C(O)(CNCc2ccccc2)c2ccccc2)cc1 (stereo not drawn) | 23 | 21 | -13 | 3 | 7 | i | 1 | -2
O=C(Nc1ccccc1N1CCCC1)c1ccc2c(c1)OCO2 | -6 | -17 | 1 | 9 | -13 | i | -1 | 0
C/C(=N\NC(=O)c1ccc2c(c1)OCO2)c1ccc(O)cc1 | -30 | 8 | 3 | 1 | . | i | 4 | 2
C/C(=N\OC(=O)c1ccc(OC(C)C)cc1)c1ccc(C)c(C)c1 | -14 | -10 | -5 | -16 | -20 | i | 3 | 1
O=S(=O)(c1cc(Cl)ccc1Cl)N1CCNCC1 | -23 | 9 | 8 | -6 | 3 | i | -13 | -5
c1cncc(-c2ccc3ncnc(NCc4cccs4)c3c2)c1 | 36 | . | . | . | -9 | . | 1 | -2
COc1ccc(C(=O)Nc2c3c(nn2C(C)(C)C)CS(=O)(=O)C3)cc1OC | 3 | 17 | 3 | 10 | -2 | i | 4 | -1
CCC(C)c1ccccc1NC(=O)COC(=O)c1ccc(N2CCCC2)c([N+](=O)[O-])c1 (stereo not drawn) | 11 | -3 | -9 | 2 | . | i | 3 | 0
CCCCC(=O)Nc1nc2ccc(C(=O)OC)cc2s1 | -22 | 9 | -5 | 27 | . | i | -1 | 2
Cc1nn2cc(-c3ccc(Cl)cc3)cnc2c1Cl | -66 | 7 | -6 | 3 | -4 | i | -2 | -2
COc1ccccc1N(CC(=O)NC1CCCC1)S(=O)(=O)c1ccc(C)cc1 | 10 | 5 | -9 | 3 | -10 | i | -1 | -1
COc1ccc(CC(NC(C)=O)C(=O)NC2CCN(S(=O)(=O)c3ccccc3)CC2)c(OC)c1 (stereo not drawn) | -2 | -16 | -9 | -8 | -5 | i | 3 | 1

Further compounds
SMILES | HIV Env fusion | CSC inhib | eIF4H FP inh | PABP polyA inh | Yeast UUG start | Rce1 inh | MT1-MMP act inh | MT1-MMP act inh RFP
CCC1CCCCN1C(=O)CSc1nnc(-c2c[nH]c3ccccc23)o1 (stereo not drawn) | . | 18 | -2 | -5 | -6 | i | -10 | -2
CCCn1cc(NC(=O)c2cc(-c3ccccc3)on2)cn1 | -132 | 54 | -5 | 3 | -8 | i | 9 | 5
C=CCn1c(C)cc(C(=O)Cn2nc(C(=O)O)c3ccccc3c2=O)c1C | -61 | -5 | -10 | 3 | -19 | i | 1 | 2
Cc1ccc2nc(SCC(=O)Nc3cccc([N+](=O)[O-])c3)[nH]c2c1 | 20 | 5 | -10 | -5 | -16 | i | 2 | -6
COc1ccc(-c2nc3ccccn3c2C=O)cc1 | . | 1 | 7 | -8 | -13 | i | 1 | 4
Cc1ccc(NC(=O)CSCC(=O)Nc2ccc(N3CCOCC3)c(Cl)c2)cc1 | . | 6 | 6 | 3 | -15 | i | 4 | -4
CC(C)(C)NS(=O)(=O)c1ccc(-c2csnn2)s1 | . | -1 | 2 | -4 | -12 | i | 4 | 3
CCCNC(=O)/C(C#N)=C1\N=C(NC(=O)c2cccs2)c2ccccc21 | 3 | -10 | -17 | -6 | -2 | i | 3 | 5
COc1ccc(NC(=O)CSc2nnc(-c3ccoc3C)n2CCc2ccccc2)cc1 | -93 | . | 0 | 2 | 18 | i | 0 | 0
O=C(CCNC(=O)c1ccc(Br)cc1)Nc1cc(Cl)ccc1-n1cncn1 | 41 | -13 | . | . | -7 | i | 0 | 0

High-throughput results from PubChem BioAssay.
